# Bioassay records as filed in PubChem BioAssay.
# SARS PLP yeast – blocks SARS-CoV papain-like protease in a yeast assay. S. cerevisiae expressing SARS-CoV PLpro, growth rescue; control for the full effect not named in the record. Potency, µM (top dose mostly 32.9 µM), inactives show at the top dose activity, positive = growth rescue. actives 0.19% (n = 330,000). AID 485353; also: 0% is about no effect; nearly all actives have a fitted effect of over 55% in size; growth read by luminescence after 48 h
# LASV entry inh – blocks Lassa virus binding to or entry into cells; Lassa virus pseudotype entry inhibition, cell reporter; control for the full effect not named in the record; Potency, µM (highest dose often 37.9 µM), for inactives: at the top dose activity change, negative = inhibition, most hits filed as inhibitors; actives 1.2% (n = 300,000); active means well fitted inhibition curve with a large enough effect; inconclusive means small, poorly fitted or top-dose-only effect, or effect the other way; inactive means flat fitted curve, though single readings scatter; tested in HEK293 cells; also: % is scaled to controls: 0 for no effect and ±100 for the full control effect; nearly all actives have a fitted effect of over 50% in size; luciferase read-out
# NS1 function inh – inhibitors of influenza NS1 protein function. S. cerevisiae slowed by influenza A NS1, growth recovery by OD600. Potency, µM (highest dose often 46.1 µM), for inactives: top-dose activity, positive = more growth. actives 0.4% (n = 270,000); also: actives are rising curves; nearly all actives have a fitted effect of over 50% in size
#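 Growth recovery, yeast-based: influenza A NS1 expressed in S. cerevisiae causes slow growth, and suppressors are detected by OD600. The parent strain without NS1 is used as positive control.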
# * = called active by the depositor; ? = inconclusive; nt = no result given; [ ] = another dose, or the depositor's remark. Unless noted, calls follow the shape of the dose curve; as a rule, active means well fitted rising curve with a large enough effect; inconclusive means small, poorly fitted or top-dose-only effect; inactive means no such curve, though single readings can be large or run the other way. Potency is read from the fitted curve at half-maximal effect. Some of the compounds tested; count on the stated rates, not on these rows.
nr	Molecule	SARS PLP yeast	LASV entry inh	NS1 function inh
1	Cc1ccc(NC(=O)Cc2ccccc2)c(C)c1	0.7%	nt	-3.8%
2	CC1(C)CC(=O)C2=C(C1)O[C@@]1(c3ccsc3)Cc3cc(C#N)ccc3C2O1	?	nt	27.1%
3	Cc1ccc(-c2nc3c(c(=O)[nH]c(=O)n3Cc3ccccc3)n2C)s1	-0.1%	nt	-0.6%
4	O=C(NCCOc1cccnc1)c1ccc(OC2CCN(Cc3ccccn3)CC2)cc1	-0.6%	nt	-4.1%
5	CCOC(=O)/C(C#N)=C1\SS/C(=C(/C#N)C(=O)OCC)S1	-4.3%	nt	-40.3%
6	Nc1ccc(C(=O)Oc2ccc([N+](=O)[O-])cc2)c(O)c1	2.5%	nt	-3.7%
7	COC(=O)CCC(=O)OC1(C)C(=O)C2=CN(CCN3CCOCC3)C(c3ccc(OC)cc3)=CC2=C(Br)C1=O (stereo not drawn)	-0.7%	nt	-3.7%
8	Cc1noc(C(=O)Nc2ccc(Cl)cc2)c1Cl	5.1%	nt	-1.8%

# The results go on.
nr	Molecule	SARS PLP yeast	LASV entry inh	NS1 function inh
9	COc1cc(/C=C2/C(=N)N3C(=NC2=O)SN=C3S(=O)(=O)C(C)C)ccc1OS(=O)(=O)c1ccccc1	1.1%	nt	6.8%
10	CCOc1cccc(/C(O)=C2/C(=O)C(=O)N(CCN3CCOCC3)C2c2ccncc2)c1 (stereo not drawn)	0.9%	nt	0.2%
11	Cc1ccc(S(=O)(=O)c2c[nH]c3cc4c(cc3c2=O)OCO4)cc1	-0.8%	nt	3.3%
12	COc1ccccc1NC(=O)C(=O)NNC(=O)COc1ccc2ccccc2c1	-8.1%	nt	-40.8%
13	O=C(N/N=C/c1cc([N+](=O)[O-])ccc1O)C1C2CCCCC21 (stereo not drawn)	-1.2%	nt	-7.4%
14	O=S(=O)(c1ccccc1)N1CCCc2ccccc21	-6.6%	nt	-7.3%
15	COC(=O)c1ccc(CSCc2ccc(C#N)cc2)cc1	-0.2%	nt	-6.8%
16	O=C1NN(c2ccc(F)cc2)C(=O)/C1=C\c1cnn(-c2ccccc2)c1	0.0%	nt	2.4%

# Record cards, as listed above. Order of values: SARS PLP yeast, LASV entry inh, NS1 function inh
# Cc1ccc(S(=O)(=O)c2c[nH]c3cc4c(cc3c2=O)OCO4)cc1 as listed: -0.8%, nt, 3.3%
# COC(=O)c1ccc(CSCc2ccc(C#N)cc2)cc1 as listed: -0.2%, nt, -6.8%
# Nc1ccc(C(=O)Oc2ccc([N+](=O)[O-])cc2)c(O)c1 as listed: 2.5%, nt, -3.7%

# (list continues)
nr	Molecule	SARS PLP yeast	LASV entry inh	NS1 function inh
17	CC(C)N(Cc1ccc(F)cc1)C(=O)c1cc2ccccc2oc1=O	1.0%	nt	12.6%
18	C#CCOCCOCCOCCNc1nc(N2CCN(C(=O)[C@H](CCC(=O)O)n3cc(C(N)Cc4ccc(O)cc4)nn3)CC2)nc(N2CCN(C(=O)[C@H](Cc3ccc(O)cc3)n3cc(C(N)[C@H](C)CC)nn3)CC2)n1 (stereo partly drawn)	-2.7%	nt	?
19	COc1cc(OC)cc(C(=O)OCCNC(=O)Cn2cnc3c2c(=O)n(C)c(=O)n3C)c1	0.8%	nt	3.1%
20	CCCC(C)C(=O)OCC(=O)Nc1ccc(Br)cc1 (stereo not drawn)	-10.6%	nt	-2.7%
21	O=C(Nc1nc2c(ccc3ccccc32)s1)c1cc([N+](=O)[O-])ccc1N1CCOCC1	1.9%	nt	4.9%
22	O=C(Nc1ccc(N2CCN(C(=O)c3cccs3)CC2)cc1)c1ccc([N+](=O)[O-])o1	-20.0%	nt	-9.7%
23	O=C1C2=C(C(=O)c3ccccc31)C1O[C@](CCCCN3C(=O)c4ccccc4C3=O)(Cc3ccccc31)O2	-5.1%[6.58 µM]	nt	-35.2%
24	Cc1ccc(O)c(C(=O)c2cnn(C(=O)COc3ccccc3C#N)c2)c1	-4.9%	nt	-1.1%

# (listing goes on)
nr	Molecule	SARS PLP yeast	LASV entry inh	NS1 function inh
25	Cc1ccc(NS(=O)(=O)c2cccc(C(=O)NN3CCOCC3)c2)cc1	1.5%	nt	-3.9%
26	Oc1c(Cl)cc(CN2CCCCC2)c2cccnc12	21.4%	nt	-64.2%
27	N/C(=N\OC(=O)COc1ccc2ccccc2c1Br)c1cccnc1	-1.2%	nt	0.6%
28	C#CCOCCOCCOCCNc1nc(N2CCN(C(=O)C(Cc3ccc(O)cc3)n3cc(C(N)CC(C)C)nn3)CC2)nc(N2CCN(C(=O)C(Cc3cc4ccccc4[nH]3)n3cc(C(N)Cc4ccc(O)cc4)nn3)CC2)n1 (stereo not drawn)	0.3%	nt	4.4%
29	O=S(=O)(O)c1nc2ccccc2n1Cc1cccc2ccccc12	-0.8%	nt	0.3%
30	CCCN1CCC(NC23CC4CC(CC(C4)C2)C3)CC1	-9.1%	nt	12.8%
31	COc1cc2ccccc2cc1C(=O)Nc1sc2c(c1C(N)=O)CCN(C(C)C)C2	-1.5%	nt	-37.6%
32	COc1ccc([C@]23Cc4cc(OC)c(OC)cc4C(O2)C2=C(CCCC2=O)O3)cc1	?	nt	1.6%

# The list continues.
nr	Molecule	SARS PLP yeast	LASV entry inh	NS1 function inh
33	Cn1c(SCC(=O)NNC(=S)Nc2ccccc2)nnc1-c1ccncc1	-0.2%	nt	3.16µM*
34	Cc1cc(NC(=O)CN2CCN(Cc3ccccc3)CC2)nc2c1c(=O)oc1ccccc12	0.8%	nt	-24.1%
35	Cc1nc2ccccc2c2oc(C(=O)N3CCc4ccccc43)cc12	0.4%	nt	-24.8%
36	CC(C)CN1C(=O)/C(=C/c2c(N3CCc4ccccc4C3)nc3ccccn3c2=O)SC1=S	1.1%	nt	2.3%
37	COC(=O)c1cc(NC(=O)/C=C/c2ccccc2)ccc1O	-3.9%	nt	-8.2%
38	COC(=O)c1ccc(C2c3c(oc4cc(C)c(C)cc4c3=O)C(=O)N2CCCN(C)C)cc1 (stereo not drawn)	-0.1%	nt	7.2%
39	CN(C)c1ncc(/C=C2/C(=O)NC(=S)N(C3CCCCC3)C2=O)cn1	-1.4%	nt	5.2%
40	COc1ccc(C2CC(c3ccc(C)cc3)=NN2C(=O)CCC(=O)O)cc1OC (stereo not drawn)	3.3%	nt	?

# Given as labelled records: 3 of the compounds above.
(35) Cc1nc2ccccc2c2oc(C(=O)N3CCc4ccccc43)cc12
  SARS PLP yeast: 0.4%; LASV entry inh: nt; NS1 function inh: -24.8%
(36) CC(C)CN1C(=O)/C(=C/c2c(N3CCc4ccccc4C3)nc3ccccn3c2=O)SC1=S
  SARS PLP yeast: 1.1%; LASV entry inh: nt; NS1 function inh: 2.3%
(37) COC(=O)c1cc(NC(=O)/C=C/c2ccccc2)ccc1O
  SARS PLP yeast: -3.9%; LASV entry inh: nt; NS1 function inh: -8.2%

# Continuation:
nr	Molecule	SARS PLP yeast	LASV entry inh	NS1 function inh
41	NN=C1c2cc([N+](=O)[O-])ccc2-c2ccc([N+](=O)[O-])cc21	0.9%	nt	5.3%
42	O=C(C1CCN(c2ncnc3c2sc2cccc(F)c23)CC1)N1CCCC1	-1.0%	nt	-34.5%
43	Cc1ccc(C(=O)N2CCN(c3ncnc4c(-c5ccccc5)nsc34)CC2)cc1	1.4%	nt	0.0%
44	O=C1OC2(CCCCC2)CC2=C1C1O[C@](CCCCN3C(=O)c4ccccc4C3=O)(Cc3ccccc31)O2	0.9%[6.58 µM]	nt	-1.0%
45	Fc1ccccc1-c1n[nH]c(=S)n1C1CC1	16.2%	nt	1.6%
46	O=C(CN1C(=O)c2ccccc2C1=O)Oc1ccc(F)cc1	16.6%	nt	-6.6%
47	Cc1nc2ccccc2c(=O)n1/N=C1\C(=O)N(C)c2ccccc21	-1.7%	nt	-5.2%
48	COc1ccc2nc3cc(Cl)ccc3c(Nc3cc(CN4CCCC4)c(O)c(CN4CCCC4)c3)c2n1	-16.0%	nt	-17.3%

# The list continues.
nr	Molecule	SARS PLP yeast	LASV entry inh	NS1 function inh
49	COc1ccc(N2CCN(C(=O)c3ccc4c(c3)NC(=O)C(CSCc3c(F)cccc3Cl)N4)CC2)cc1 (stereo not drawn)	-1.1%	nt	25.4%
50	CC(C)(C)c1ccc(-c2nc(O)c(CC(=O)O)s2)cc1	-2.0%	nt	-2.0%
51	COc1ccc(/C=C2\CCCc3c2nc2ccccc2c3C(=O)O)cc1OC	0.6%	nt	6.0%
52	C#Cc1ccc([C@@H]2C=C(C(=O)N3CCN(Cc4ccccc4)CC3)O[C@H](OCCCCO)C2)cc1	-2.1%	nt	-5.6%
53	CC1(C)NC(=O)N(CCCCOc2ccccc2[N+](=O)[O-])C1=O	-0.3%	nt	3.4%
54	O=C(/C=C/c1ccc([N+](=O)[O-])cc1)/C=C/c1ccco1	-22.8%	nt	2.9%
55	CC(C)C1=CC2=CCC3C(C)(C(=O)O)CCCC3(C)C2CC1 (stereo not drawn) (tested in a mixture with another compound)	1.9%	nt	?
56	C=C1[C@@H](C)C2[C@H](Cc3ccccc3)NC(=O)[C@]23OC(=O)CC[C@H](O)CCC[C@H](C)C/C=C/[C@H]3[C@@H]1O (stereo partly drawn)	-3.2%	nt	2.2%

# More records:
nr	Molecule	SARS PLP yeast	LASV entry inh	NS1 function inh
57	O[C@H]1CN(CC2CCCCC2)[C@@H](c2ccc(Cl)cc2)C[C@H]1n1cc(C2CC2)nn1	nt	9.95µM*	nt
58	Cc1cc(C)cc([C@H]2C[C@]34CN(Cc5ccccc5)[S+](=O)([O-])[C@@H]3C[C@@H]2O4)c1	nt	4.7%[46.1 µM]	nt
59	O=S1(=O)N[C@H](Cc2ccccc2)COc2cccc(F)c21	nt	?	nt
60	Fc1ccc(-c2ncn(C3CCNCC3)c2-c2ccnc(Oc3ccccc3)n2)cc1	nt	6.28µM*	nt
61	CCn1c(-c2nonc2N)nc2c(C#CC(C)(C)O)nc(OCC(N)c3ccccc3)cc21 (stereo not drawn)	nt	?	nt
62	CCCCCCN1C[C@H](n2cc(C3CC3)nn2)[C@@H](O)C[C@H]1c1ccc(Cl)cc1	nt	15.8µM*	nt
63	C#CCNC[C@@H]1CSCCS(=O)(=O)N1	nt	-2.8%[46.1 µM]	nt
64	Cc1nn(C)c2cc(N(C)c3ccnc(Nc4cccc(S(N)(=O)=O)c4)n3)ccc12	nt	?	nt

# Next section.
nr	Molecule	SARS PLP yeast	LASV entry inh	NS1 function inh
65	C[C@H]1[C@@H](c2ccccc2)Oc2c(Cl)cccc2S(=O)(=O)N1Cc1ccc(F)cc1F	nt	?	nt
66	O=C(C=Cc1ccccc1)Nc1cccc(C(=O)NCCCc2ccccc2)c1	nt	?	nt
67	O=S1(=O)N[C@H](Cc2ccccc2)COc2cc(Br)ccc21	nt	?	nt
68	O=C(Nc1ccc(Cl)cc1)OC[C@@H]1CSCCS(=O)(=O)N1	nt	?	nt
69	COc1ccc(Nc2ncc(-c3ccccc3)o2)cc1OC	nt	?	nt
70	c1cc(-c2cnn3nc(N4CCOCC4)ccc23)nc(NC2CC2)n1	nt	?	nt
71	CC(C)c1ccc(-c2cc(-c3cn[nH]c3-c3ccccn3)ccn2)cc1	nt	?	nt
72	O=C(OCc1cn([C@@H]2C[C@H](c3ccccc3)N(CC3CCCCC3)C[C@@H]2O)nn1)c1ccccc1	nt	-8.6%[46.1 µM]	nt

# (next part)
nr	Molecule	SARS PLP yeast	LASV entry inh	NS1 function inh
73	CN(c1ccc(NC(=O)Nc2c(Cl)cccc2Cl)cc1)c1ccnc(Nc2cccc(CS(C)(=O)=O)c2)n1	nt	?	nt
74	COc1cc(C)c(NC(=O)CN(C)C)cc1Nc1nc(Nc2cccc(F)c2C(N)=O)c2cc[nH]c2n1	nt	2.5µM*	nt
75	Cc1ccc(NC(=O)c2ccoc2)cc1-c1ccc(C(=O)NCC2CC2)cc1	nt	3.15µM*	nt
76	Cc1cccc(-c2[nH]ncc2-c2ccc3ncccc3n2)n1	nt	?	nt
77	CCCCCC(=O)N1C[C@H](n2cc(COC(=O)c3ccccc3)nn2)[C@@H](O)C[C@H]1c1ccc(Cl)cc1	nt	?	nt
78	O=S1(=O)c2cccc(Cl)c2OC[C@H](c2ccccc2)N1Cc1ccc(F)cc1F	nt	?	nt
79	CCCN1CCCC(c2ccc(Nc3nc(Nc4cc(F)ccc4C(N)=O)c4cc[nH]c4n3)c(OC)c2)C1 (stereo not drawn)	nt	14.1µM*	nt
80	CCn1c(-c2nonc2N)nc2c(C#CCN)ncc(OCCCN)c21	nt	?	nt
81	C[C@@H]1COc2cccc(N3CCCC3)c2S(=O)(=O)N1	nt	?	nt
82	Cc1ccc(O)cc1Nc1ccnc2ccc(S(C)(=O)=O)cc12	nt	?	nt
